Beta apoptosis: blocks beta cell apoptosis. INS-1E cytokine-induced death, ATP luminescence, 48 h; percent of positive-control rescue, neutral wells zero. protection from apoptosis, % (no concentration beside the values). 300,000 compounds, 0.8% hits. AID 435005;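 active = all replicates at 75% or more, or half of them and the mean; inconclusive = half reach 75% but not the mean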;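 also: 0% = cytokine-treated negative control wells and 100% = positive control rescue; higher means more ATP so stronger rescue from cytokine killing; wells of about 40 µL received 100 nL stock; the first replicate is given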
Calb FLC: affects C. albicans growth with fluconazole. 300,000 compounds, 0.57% hits. C. albicans CaCi-2 (fluconazole-resistant clinical isolate) + fluconazole, Alamar Blue growth, 48 h. growth inhibition, % (test concentration not listed);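 active = most replicates above 75%; inconclusive = exactly half above 75%; inactive = most below 75%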;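 also: all wells also contain fluconazole at 8 µg/ml as a sub-toxic cotreatment; 0% = median of DMSO wells and 100% = median of geldanamycin control wells; wells of about 8 µL received 7.5 nL stock; the first replicate is given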
Ecoli rRNA inh: inhibits bacterial ribosomal RNA function over humanized ribosomes; 350,000 compounds, 1.6% hits; E. coli WT GFP vs humanized-ribosome RFP mutants, fluorescence, 24 h; stronger effect = lower value; DMSO median 0, no signal -100; GFP signal change (wild-type ribosome), % (concentration not given with the values);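 active = significant combined selectivity score with lowered wild-type GFP, culture density cut under 30%, mutant RFP and density less affected; inactive = any of these conditions unmet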; also: one replicate is shown; some compounds called inactive have numbers as strong as hits
Bfl-1 A1 inh: inhibitors of the anti-apoptotic protein A1, read as caspase activation. caspase activation, % (test concentration not listed). 330,000 compounds, 0.066% hits. MEF A1-2A-BIM cells, Caspase-Glo 3/7 luminescence, 3 h; percent of clofoctol response, vehicle zero;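 active = over half of replicate activation scores above 10%, or exactly half above 10 with the replicate mean above 10; inconclusive = replicate mean below 10 yet half the replicates above 10; inactive = over half of replicates below 10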;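 also: wells of about 30 µL received 50 nL stock; many hits fall short of the cut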
Vif TR-FRET: HIV-1 Vif–A3G interaction blockers – biochemical, TR-FRET, GST-Vif 1-94, biotin-A3G peptide, dose response retest, primary screen (AID 1117319). TR-FRET GST-Vif / biotin-A3G peptide binding; higher % means a stronger effect; test concentration not given here; strong numbers were not always called active. inhibition, %, or IC50 in µM where a hit was titrated. 260,000 compounds, 0.57% hits;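 active = above the screen mean plus three standard deviations and confirmed in dose response; inconclusive = results disagree or hit not tested in dose response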;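 also: Vif residues 1-94 fused to GST binding biotinylated APOBEC3G peptide 110-148; 0% = full assay without inhibitor and 100% = GST in place of GST-Vif; retest series ran down from 100 µM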
T cruzi inh: T. cruzi replication inhibition. T. cruzi beta-gal in NIH3T3, luminescence, 90 h. inhibition, % (test concentration not listed). 300,000 compounds, 1.4% hits. AID 1885;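 active = mean inhibition across valid replicates above about 55%, limit read from the data; inconclusive = mean below that limit but half or more replicates reach it; inactive = mean below it, under half of replicates reach it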;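 also: signal also drops with host cell toxicity which is not excluded here; 0% = plate median of DMSO wells and 100% = zero luminescence signal; higher percent means less beta-gal luminescence so fewer parasites; stock transfer was 50 nL into about 50 µL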
MLL AF4-AF9 inh: inhibitors of human MLL-AF4/AF9 interaction; P42568; 350,000 compounds, 0.47% hits; AlphaScreen, biotin-AF4 peptide binding to FLAG-AF9; inhibition, % at 10 µM; AID 651704;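 active = every replicate reaching a set inhibition limit, whatever the replicate mean, cut at about 25% in these data; inconclusive = mean inhibition reaches that limit but some replicates miss it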;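 also: 0% = plate neutral control median and 100% = total signal loss; the record names both 10 and 1 µM as test concentration; the first replicate is given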
Target sequence (P42568 whole entry, looked up): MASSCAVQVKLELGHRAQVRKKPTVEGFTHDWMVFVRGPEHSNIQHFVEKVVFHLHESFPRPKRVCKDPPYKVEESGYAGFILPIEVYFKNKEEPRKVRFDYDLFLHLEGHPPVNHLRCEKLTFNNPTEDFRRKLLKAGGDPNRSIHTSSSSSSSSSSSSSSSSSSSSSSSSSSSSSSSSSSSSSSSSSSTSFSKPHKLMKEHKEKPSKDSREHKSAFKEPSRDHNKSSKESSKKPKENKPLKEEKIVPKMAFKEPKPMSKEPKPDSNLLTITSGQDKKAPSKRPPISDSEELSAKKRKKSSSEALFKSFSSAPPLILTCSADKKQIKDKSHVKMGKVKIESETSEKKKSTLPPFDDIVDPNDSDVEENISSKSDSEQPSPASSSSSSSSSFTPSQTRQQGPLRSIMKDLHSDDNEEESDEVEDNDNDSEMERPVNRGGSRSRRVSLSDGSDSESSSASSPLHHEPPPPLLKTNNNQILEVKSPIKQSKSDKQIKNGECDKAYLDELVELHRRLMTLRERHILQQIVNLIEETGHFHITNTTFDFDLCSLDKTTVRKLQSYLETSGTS
RanGTP-Imp inh: disruptors of Ran-importin-beta complex formation – biochemical, FRET, CFP-Ran, YFP-importin-beta, homogeneous, primary screen. cell-free CFP-Ran/YFP-importin-beta FRET ratio. inhibition, % (no concentration beside the values). 300,000 compounds, 1.1% hits. AID 2216;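 active = most replicates above 15%; inconclusive = exactly half above 15%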;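 also: 0% = DMSO wells and 100% = Ran loaded with GDP instead of GTP; wells of about 40 µL received 100 nL stock; the first replicate is given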
Ecoli rRNA inh OD600: second read-out of Ecoli rRNA inh, no call of its own (marks repeat the call); OD600 change, %; measured here: OD600 growth;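 optical density of the mix in the first replicate; 0 = DMSO median and -100 = no signal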
Ecoli rRNA inh RFP: also measured in Ecoli rRNA inh; calls as there; RFP signal change, %; measured here: RFP humanized mutant strains;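 first replicate; 0 = DMSO median and -100 = no signal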
An asterisk follows results filed as active; u = inconclusive; x = not tested or not shown.

SMILES	Beta apoptosis	Calb FLC	Ecoli rRNA inh	Ecoli rRNA inh OD600	Ecoli rRNA inh RFP	Bfl-1 A1 inh	Vif TR-FRET	T cruzi inh	MLL AF4-AF9 inh	RanGTP-Imp inh
CN(C)CCCNc1ncnc2scc(-c3ccccc3)c12	-17	-12	6	3	0.8	1.3	x	9	1.4	-0.3
Nc1nnc(CSCc2ccc(Cl)cc2Cl)s1	-5	-11	-28	-38	-8.6	-0.6	0%	-18	-3.7	0.2
CCOC(=O)c1ccc(N2C(=O)C=C(N3CCOCC3)C2=O)cc1	-5	-8	2	8	-0.5	-0.4	-3%	-8	2.2	-0.3
O=C(NNC(=O)c1ccccc1F)c1ccc2nc[nH]c2c1	-1	-6	19	9	2.0	-0.8	2%	-26	0.4	-3.5
Cc1cc(C)nc(-n2nc(C)cc2NC(=O)CN2CCC(C)CC2)n1	10	3	x	x	x	-0.8	0%	19	x	2.3
O=C(COC(=O)c1ccc2[nH]c3c(c2c1)CCCC3)NC1CCS(=O)(=O)C1 (centres undefined)	-1	-15	-13	-3	-4.3	-0.5	1%	-7	5.0	2.5
O=C(/C=C/Nc1ccccc1Br)c1ccccn1	25	-1	x	x	x	-1.0	42µM*	6	x	-2.0
COc1ccccc1N1CC(C(=O)Nc2cc(C(F)(F)F)ccc2N2CCCC2)CC1=O (centres undefined)	3	-13	0	3	-1.2	0.5	5%	-10	-37	-4.4
Nc1cccc2c1C(=O)N(Cc1nnc(-c3ccccc3Br)o1)C2=O	-5	-6	-8	-34	-2.6	0.1	x	-1	-4.1	35*
CC(=O)NCCOc1nc(N(C)C)nc(N(C)C)n1	-1	-6	x	x	x	-0.3	0%	-1	x	-5.3
Cc1ccc(N(C(=O)c2csnn2)C(C(=O)NC2CCCC2)c2ccccn2)c(C)c1 (centres undefined)	2	-1	11	1	6.1	-0.6	x	4	-5.0	u
CSc1nsc(SCC(=O)NC2CCCCC2)n1	-9	-3	x	x	x	0.0	u	-7	x	-6.2
CN(/N=C/c1ccc(C(C)(C)C)cc1)C1=NCCN1	1	-2	10	7	-1.3	0.7	-11%	34	1.7	-0.3
Cc1cccc(NC(=O)CN2CCc3cc4c(cc3C2)OCCCO4)c1	-3	-5	-1	-7	-5.6	0.8	x	-9	-2.6	1.0
Cc1occc1-c1nnc(SCC(=O)N(C)CCC#N)n1N	4	3	x	x	x	0.3	-1%	-33	x	2.2
CC1=CC(C)C(C(=O)O)C(C(=O)N2CCN(C)CC2)C1 (centres undefined)	-4	-12	14	12	-0.4	-0.9	-2%	-10	-2.5	-1.5
N#Cc1cc(Cl)c(N2CCOCC2)cc1C#N	-1	7	x	x	x	-2.0	-2%	-15	x	4.4
CCOc1cc(CNn2nnnc2N)cc(Cl)c1OCC(=O)NC(C)(C)C	-8	1	x	x	x	0.3	0%	-20	x	u
CC(=O)Oc1ccc(/C=N/NC2=NS(=O)(=O)c3ccccc32)cc1	-1	-9	-2	1	4.9	0.3	-6%	-6	-0.9	-0.2
CN(C)c1ccc(NC(=O)CC(NCc2ccccn2)C(=O)O)cc1 (centres undefined)	-2	-5	x	x	x	-0.3	11%	-7	x	0.2
Cc1c(F)cccc1NS(=O)(=O)c1ccc2c(c1)NC(=O)CO2	-3	20	-13	-18	-2.1	0.1	1%	-2	1.0	1.5
COc1ccc(C2=NOC(C(=O)O)C2)cc1 (centres undefined)	0	23	10	12	3.0	0.7	-2%	-19	x	1.3
CN(C)C(CNC(=O)c1ccc(NS(=O)(=O)c2ccc(F)c(F)c2)cc1)c1ccccc1 (centres undefined)	-1	4	7	-1	1.6	1.2	5%	-15	-1.5	x
COc1ccc(N2CCN(S(=O)(=O)CCNC(=O)c3cc(=O)c4ccccc4o3)CC2)cc1	1	6	25	15	4.8	1.5	14%	-6	1.9	9.4
NC(N)=NC(N)=Nc1ccc(O)cc1	5	1	3	9	1.9	-0.7	u	-4	-1.5	3.5
COC(=O)C1=C(C)N=C2SC(C)C(=O)N2C1/C=C/c1ccccc1 (centres undefined)	-7	-37	x	x	x	0.3	-3%	-61	x	4.6
O=[N+]([O-])c1ccc(NC(=S)NCC(c2cccnc2)N2CCOCC2)cc1 (centres undefined)	0	2	5	5	1.0	0.8	0%	11	4.5	0.1
CC(C)(C)NC(=O)C[n+]1ccc(C(N)=O)cc1	-4	u	5	5	-6.7	1.6	0%	-17	-2.2	-2.5
CC(=O)C1=C(C)NC(SCc2cccc([N+](=O)[O-])c2)=C(C#N)C1c1ccco1 (centres undefined)	0	10	x	x	x	0.4	10%	13	x	6.2
Cc1cc2ccccn2c1C(=O)Nc1cccc(Cl)c1	8	-12	-33*	-23*	6.2*	-2.4	11%	14	1.6	x
CCOc1ccc2oc(=O)cc(CN3CCN(C(=O)c4ccco4)CC3)c2c1	-3	10	-2	-6	-1.5	-0.1	x	18	0.8	0.7
O=c1ccn(-c2ccccc2)[nH]1	0	-30	9	4	-6.1	0.4	22%	-9	-1.9	5.2
CCOC(=O)C(=NC1CCS(=O)(=O)C1)NNc1cc(Cl)ccc1Cl (centres undefined)	-9	-2	4	-10	7.9	-0.6	12%	-4	5.3	-4.3
O=C(NCCCn1ccnc1)C(=O)NCC(c1cccnc1)N1CCN(c2ccc(F)cc2)CC1 (centres undefined)	6	10	x	x	x	-0.4	-1%	40	x	u
CC(C)Oc1cc(S(=O)(=O)N2CCCCC2)ccc1N	0	-6	4	5	1.8	0.1	-4%	-4	-14	5.4
COC(=O)c1ccc(N(CC(=O)NC2CCCCC2)C(=O)CNC(=O)c2ccco2)cc1	-1	-3	9	2	-0.4	0.4	x	2	-4.5	-2.4
CC1CCCC(C)N1C(=O)COC(=O)CCc1nc2ccccc2c(=O)[nH]1 (centres undefined)	-6	4	x	x	x	0.0	-5%	0	x	u
O=C1CC(SCCO)C(=O)N1c1ccc(Oc2ccccc2)cc1 (centres undefined)	-1	43	-8	0	1.4	1.3	-5%	7	-35	5.9
CN(C)C(=O)CNC(=O)CN1C(=O)NC2(CCCc3sccc32)C1=O (centres undefined)	-2	3	6	12	-3.3	0.4	x	-8	2.0	0.1
CCOC(=O)CNC(=O)COc1ccc(Cl)cc1Br	-6	u	x	x	x	0.3	6%	-5	x	3.1
COC(=O)C1=CN(C2CC2)C=C(C(=O)OC)C1c1ccc(C(=O)OC)cc1	-4	-7	x	x	x	-0.3	-11%	2	x	52*
COc1ccc(NC(=O)c2cccc(S(=O)(=O)Nc3ccc(Br)cc3)c2)cn1	-4	3	-48	-79	-22	0.4	69%	-4	5.5	-1.0
CC1CCCCN1S(=O)(=O)c1ccc(C(=O)N(CCCN(C)C)c2nc3cc4c(cc3s2)OCO4)cc1 (centres undefined)	-4	-2	-7	2	1.6	0.4	x	35	15	-2.7
O=C(O)C1(c2ccccc2)CCN(S(=O)(=O)c2ccc(F)c(F)c2)CC1	-1	3	-5	5	-6.4	-0.1	-6%	3	0.2	5.5
COc1ccc(-n2c(C)cc(/C=C3\C(=N)N4N=C(CC(=O)N5CCOCC5)SC4=NC3=O)c2C)cc1	0	4	2	-4	6.3	0.4	x	29	-1.4	2.4
COc1ncccc1-c1nnn(-c2ccc(Cl)c(Cl)c2)n1	4	-23	6	13	-1.3	-3.7	-8%	-5	-3.6	-4.5
N/C(CS(=O)(=O)c1ccccn1)=N\OC(=O)c1ccc(Cl)cc1	4	x	6	-1	-2.3	-0.9	-5%	-11	-7.4	3.7
Cn1c(=O)c2c(ncn2CC(=O)OCC(=O)Nc2cccc(Cl)c2)n(C)c1=O	-1	3	-2	-5	-2.0	-0.9	x	-7	-0.6	u
COc1ccc(N2CCN(C(CNC(=O)c3ccc4c(c3)OCO4)c3cccnc3)CC2)cc1 (centres undefined)	-13	-4	x	x	x	0.8	-3%	45	x	2.2
Cc1cccc(N2C(=O)C3CC3C2=O)c1 (centres undefined)	-3	-3	8	12	3.7	0.3	-5%	-19	-1.3	1.0
CCNS(=O)(=O)c1ccc(NC(=O)Nc2ccc3c(c2)OCO3)cc1	0	0	0	6	-0.8	0.2	x	4	-1.4	8.9
COc1cccc(C2=NOC(C(=O)NC3CCCCC3)C2)c1 (centres undefined)	-3	17	x	x	x	-0.5	18%	-8	x	4.4
NC(=O)CCCC1=NS(=O)(=O)c2ccccc2N1	x	2	x	x	x	0.5	19%	-2	x	1.3
C/C(=N\NC(=O)Cc1ccccc1Cl)c1cccnc1	-7	-10	8	4	-3.2	0.1	x	6	0.0	1.8
CN(Cc1nccn1C)C(=O)CCc1nnc(CCC2CCCCC2)o1	2	5	2	1	-1.2	-0.7	5%	-17	-2.1	-0.3
COc1ccc(-c2nc3ccccc3c(=O)n2NC(=O)c2cccnc2Cl)cc1OC	-3	-3	8	10	-0.3	0.2	x	-14	-4.2	2.6
Cc1ccc(N2C(=O)CN=C2Nc2nc(C)cc(C)n2)cc1	3	1	15	9	0.8	0.2	-18%	-19	-0.2	6.9
CCn1c(=O)c(C(=O)NCCNCCO)c(O)c2ccccc21	-2	x	x	x	x	0.6	-1%	2	x	1.7
Cn1c(=O)oc2cc(S(=O)(=O)Nc3ccccc3O)ccc21	-2	-29	1	0	7.3	-0.5	14%	-9	1.7	-4.3
CN1CCC(N(C)C(=O)CCc2nc3ccccc3n2-c2ccccc2)CC1	-9	-1	15	-2	1.0	0.7	-1%	-12	-0.7	-1.2
Next part
SMILES	Beta apoptosis	Calb FLC	Ecoli rRNA inh	Ecoli rRNA inh OD600	Ecoli rRNA inh RFP	Bfl-1 A1 inh	Vif TR-FRET	T cruzi inh	MLL AF4-AF9 inh	RanGTP-Imp inh
Cn1c(N2CCN(C(c3ccccc3)c3ccccc3)CC2)nc2c1c(=O)[nH]c(=O)n2C	4	3	12	5	-0.1	1.0	-3%	2	-2.2	-0.9
Clc1ccc(OCc2cc(-c3ccccc3)no2)cc1Cl	x	-15	1	-2	1.5	-0.5	4%	-13	-20	5.3
Cc1ccccc1NS(=O)(=O)c1ccc2c(c1)NC(=O)CO2	-4	-26	22	7	2.0	-0.3	1%	-20	-1.1	u
CCSc1nc2c(c(-c3ccc(C)o3)c1C#N)CCCC2	2	4	x	x	x	3.0	x	5	x	2.9

These rows are one share of the data. The share of hits here may be higher or lower than overall.
